# Screens deposited in PubChem by National Center for Advancing Translational Sciences (NCATS).
# Rango release inh: inhibition of RanGTP-driven Rango-importin beta dissociation; 0.071% of 340,000 active; O95149+P62826; Biochemical FRET Rango-importin beta, RanGTP-induced dissociation; Potency, µM (doses to about 46.1 µM), without a hit: top-dose activity change, negative = inhibition; active means falling FRET ratio curve, often poorly fitted, with flat reads before Ran was added; inconclusive means other falling curves, or compound fluorescence or quenching; inactive means flat or rising ratio curve;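 note: potency is the fitted concentration of half-maximal effect; % of control where 0% means no effect; nearly all actives have a fitted effect of over 45% in size; -100% = wells without RanGTP and RCC1; the record marks most hits as doubtful in a second field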
#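 Rango (0.1 uM)–importin beta (0.25 uM) complex; RanGTP-RCC1 trigger; 45 min RT; CFP/YFP FRET read.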
# Rango-impB inh: inhibitors of Rango-importin beta complex formation. Q14974. Rango CFP/YFP FRET sensor + importin beta, 45 min. Potency, µM (titrated, usually from 92.2 µM), inactives show top-dose inhibition of complex formation. 0.031% of 340,000 active. AID 540263; active = rising FRET ratio curve, often small or poorly fitted; inconclusive = mostly compound fluorescence or quenching in the first reads; inactive = flat curves in all reads;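 note: potency is the fitted concentration of half-maximal effect; 0% = DMSO wells and 100% = buffer wells lacking importin beta; nearly all actives have a fitted effect of over 15% in size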
#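 FRET biosensor Rango (snurportin 1 IBB between N-terminal EYFP and C-terminal Cerulean), 50 nM in PBS/1 mM DTT/0.02% Tween-20/0.1% BSA, preincubated 5 min RT with compound; 0.125 microM importin beta added, 45 min RT, CFP/YFP FRET ratio read.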
# GLA inh pH 4.5: blocks human alpha-galactosidase A at pH 4.5; P06280; purified enzyme, 4-MU-alpha-Gal fluorescence, pH 4.5; activity change, negative = inhibition, % at 105 µM; 230,000 tested, under 10 active; inconclusive = small, poorly fitted or top-dose-only inhibition, or a rising curve; inactive = flat fitted curve, though single readings scatter; no compound was filed as active;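 note: 0% = full activity with enzyme and -100% = basal without enzyme; dose as in the result columns while the protocol names 77 µM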
# Target sequence (P06280 whole entry, looked up): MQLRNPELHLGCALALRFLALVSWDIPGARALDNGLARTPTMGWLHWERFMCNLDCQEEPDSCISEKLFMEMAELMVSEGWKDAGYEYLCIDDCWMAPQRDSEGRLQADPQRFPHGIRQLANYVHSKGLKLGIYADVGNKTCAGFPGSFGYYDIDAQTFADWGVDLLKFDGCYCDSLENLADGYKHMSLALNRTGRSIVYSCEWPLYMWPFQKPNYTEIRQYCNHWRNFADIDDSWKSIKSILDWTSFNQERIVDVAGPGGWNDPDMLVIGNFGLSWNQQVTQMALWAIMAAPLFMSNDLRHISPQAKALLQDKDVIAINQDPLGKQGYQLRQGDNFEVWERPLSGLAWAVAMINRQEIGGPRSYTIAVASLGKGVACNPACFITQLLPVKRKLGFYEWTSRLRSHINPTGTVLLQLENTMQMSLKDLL
# miR-21 reporter: miR-21 reporter, rising signal; HeLa miR-21 FLuc reporter, luciferase, 48 h; Potency, µM (top dose mostly 38.3 µM), for the others: at the top dose reporter change, positive = more light; 340,000 tested, under 10 active; active = well fitted rising curve with a large enough effect; inconclusive = small, poorly fitted or top-dose-only effect; inactive = no such curve, though single readings can be large or run the other way;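 note: % of control where 0% means no effect; miR-21 action dims this reporter so a rising signal means less miR-21 action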
#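 HeLa miR-21-FLuc reporter line, endogenous miR-21; 2000 cells/well in DMEM/10% FBS; compound titration up to ~40uM final, 48 h, 37 degree Celsius; luciferase detection reagent, 15 min lysis, CCD luminescence.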
# * hit, by the source's call; ? = inconclusive; nt = not tested or not shown; & = joins results of further samples. Only part of the results is shown, so the mix of outcomes need not match the whole.
Rango release inh,Rango-impB inh,GLA inh pH 4.5,miR-21 reporter,Structure
-27.6%,-0.2%,-3.8,-7.3%,COc1ccc(/C(N)=N/OC(=O)C2CCC(=O)N2S(=O)(=O)c2ccc(C)cc2)cc1 (stereo unspecified)
9.9%,-2.7%,nt,nt,C[C@@H](NC(=O)c1[nH]cnc1C(=O)Nc1ccc(Cl)cc1)c1ccccc1
3.2%,5.1%,1.8,-6.6%,NC(=O)COC(=O)c1ccc(Oc2ccccc2)cc1
-15.6%,3.8%,nt,nt,Cc1cc(C)c(C)c(C(=O)C(=O)c2ccccc2)c1
-1.6%,3.4%,9.5,-3.5%,CCOC(=O)c1cc(CC)sc1NC(=O)C(c1ccccc1)c1ccccc1
-12.4%,2.2%,-1.8,-2.5%,CCOC(=O)/C(N=Nc1ccc(F)cc1)=C(/O)c1ccc([N+](=O)[O-])cc1
6.0%,-0.4%,-3.6,-3.8%,COc1ccc(C2CC(c3ccc(Br)cc3)=NN2C(=O)c2cccnc2)cc1 (stereo unspecified)
1.3%,-2.1%,-2.8,-5.1%,C=CCOc1ccc(S(C)(=O)=O)cc1
?,?,-17.6,7.4%,CCN=C1S/C(=C\c2cc(OCC)c(O)cc2Br)C(=O)N1CC
0.5%,2.1%,3.8,-24.8%,CCCOCC(O)CC(CC)C(=O)NNC(=S)Nc1ccccc1 (stereo unspecified)
0.1%,-2.8%,nt,nt,OCCc1ccc(O)cc1
2.3%,0.7%,nt,-1.1%,Cc1cc(C)c(S(=O)(=O)NCC(=O)NCc2cc(=O)n(C)c(=O)n2C)c(C)c1
13.0%,0.4%,nt,nt,Nc1c(C(=O)NCC2CCCO2)c2nc3ccccc3nc2n1/N=C/c1ccncc1 (stereo unspecified)
-0.8%,1.3%,1.4,-0.2%,Cc1ccc(C)c(/C(O)=C2\C(=O)C(=O)N(Cc3cccnc3)C2c2cccnc2)c1 (stereo unspecified)
0.4%,-0.1%,10.6,-10.1%,CCN(CC)c1nc(OC)nc(-n2nnc(C(C)=O)c2C)n1
?,?,9.2,-6.4%,COCCNC(=O)Cn1c(=O)n(Cc2ccc(C(=O)NCc3ccco3)cc2)c(=O)c2ccccc21
-5.0%,2.2%,-3.1,0.2%,NS(=O)(=O)c1ccc(CCNC(=O)CCCC2=NS(=O)(=O)c3ccccc3N2)cc1
-13.5%,0.1%,nt,1.1%,CCOc1ccc(-n2nnnc2SCC(=O)Nc2cccc(O)c2)cc1
3.3%,-3.8%,nt,nt,CCC[C@@H](CN1CCC[C@H]1CN1C(N)=NC[C@H]1C(C)C)N1C[C@@H]([C@H](C)CC)N(CCCC2CCCC2)C1=N
-19.5%,-1.6%,2.5,-34.5%,COc1ccc2c(c1OC)C(=O)OC2Nc1nc(-c2ccc([N+](=O)[O-])cc2)cs1 (stereo unspecified)
2.3%,3.3%,-6.5,-3.2%,O=C(Nc1cnn(Cc2ccccc2)c1)NC12CC3CC(CC(C3)C1)C2
0.2%,4.7%,-0.8,-0.5%,CCN(C(=O)COC(=O)c1cc(S(=O)(=O)Nc2c(C)n(C)n(-c3ccccc3)c2=O)ccc1Cl)C1CCCCC1
3.0%,3.3%,-2.2,-7.0%,CC(=O)N(CC1CCCO1)c1nnc(-c2cnccn2)s1 (stereo unspecified)
17.7%,2.1%,4.1,-4.1%,O=C(CCNC(=O)Cn1ccc2ccccc2c1=O)NCCc1ccc(Cl)cc1
1.7%,10.5%,nt,-1.4%,CN(C)C(CNC(=O)CNC(=O)Cc1cccc2ccccc12)c1ccccc1 (stereo unspecified)
15.6%,-4.8%,5.8,4.2%,O=C(c1ccccc1)N1CCN(C(=O)c2ccc(OC(F)(F)F)cc2)CC1
4.0%,0.0%,nt,nt,COC(=O)c1cc(C(=O)OCC(=O)NC(=O)c2ccccc2)cc([N+](=O)[O-])c1
-6.4%,2.9%,9.6,0.6%,CC(NCC(O)COCc1cccs1)C1CC2CCC1C2 (stereo unspecified)
-2.3%,2.1%,nt,-0.8%,O=C(Nc1ccc(Cl)cc1)C1C2C=CC3(O2)C1C(=O)N(CCN1CCCCC1)C3C(=O)NC1CCCCC1 (stereo unspecified)
-13.9%,-0.4%,0.6,2.4%,CC(C)c1onc(C(=O)NC(C)c2ccccc2)c1[N+](=O)[O-] (stereo unspecified)
7.6%,-3.1%,-11.5,4.7%,O=C(CSc1nc(-c2ccco2)cc(C(F)(F)F)n1)Nc1ccc(C(=O)N2CCCCC2)cc1
23.1%,-0.1%,4.4,-6.7%,Cc1cc(NC(=O)c2ccc3c(c2)C(=O)N(CCC(C)C)C3=O)no1
-16.6%,4.9%,nt,nt,NCCCn1c(C(=O)c2ccc(Cl)cc2)c2ccc([N+](=O)[O-])cc2[n+]1[O-]
?,?,14.1,-8.3%,O=C(NNC(=O)C1C2CCCCC21)c1coc(=O)c(Br)c1 (stereo unspecified)
2.6%,1.1%,2.4,?,CS(=O)(=O)c1nc(-c2ccccc2)cc(-c2ccccc2)c1C#N
?,4.5%,-18.0,-5.4%,CCOC(=O)c1[nH]c2ccccc2c1NC(=O)c1ccco1
-5.1%,3.2%,nt,-55.7%,COc1ccccc1OCc1nc2ccccc2n1C
-25.2%,?,-18.1,1.0%,CCCN1C(=O)C(O)(c2c(C)[nH]c3ccccc23)c2ccccc21 (stereo unspecified)
-0.7%,-0.6%,-1.1,-8.3%,Cc1ccc2cccc(NC(=S)NC(=O)c3c(Br)cnn3C)c2n1
-2.6%,3.2%,nt,nt,CC(C(=O)Nc1ccccc1C#N)N1C(=O)NC2(CCCCCC2)C1=O (stereo unspecified)
9.4%,2.7%,-4.6,-7.2%,C/C=C/c1ccc(OCC(=O)Nc2ccc(C(N)=O)cc2)c(OC)c1
?,?,1.6,-0.9%,Cc1cc(C)c2c3c(sc2n1)C(c1cccc(F)c1)C(C#N)=C(N)O3 (stereo unspecified)
-5.3%,0.1%,nt,15.4%,COc1ccc(OC)c(CNc2ncc(-c3cccc([N+](=O)[O-])c3)n2C)c1
0.2%,-1.6%,-0.2,-1.2%,COc1ccc(C(c2oc(CO)cc(=O)c2O)c2oc(CO)cc(=O)c2O)cc1
1.7%,3.8%,-4.3,-10.9%,CC(NC(=O)c1ccc2c(c1)OCO2)C1CCCO1 (stereo unspecified)
-6.1%,-3.5%,-1.2,1.6%,CCOc1ccccc1NS(=O)(=O)c1ccc2c(c1)n(C)c(=O)c(=O)n2C
24.2%,2.4%,nt,-9.6%,COc1ccc(NC(=O)/C(C#N)=C\c2ccc(-c3cccc(C(=O)O)c3C)o2)cc1
1.1%,2.4%,4.8,-1.0%,O=c1cc(O)c2ccccc2n1Cc1ccccc1
0.4%,3.7%,nt,nt,O=C(O)c1cncc(SCc2ccccc2)n1
9.6%,0.6%,nt,nt,COc1cc(OC)cc(C(=O)NNC(=O)CCC2CCCC2)c1
-1.1%,1.8%,-5.6,-0.2%,O=C(CC(c1ccccc1)c1ccco1)N1CCOCC1 (stereo unspecified)
-7.5%,-2.8%,nt,-0.5%,COc1ccc(NC(=O)C2CCN(S(=O)(=O)c3c(C)noc3C)CC2)cc1
13.8%,0.4%,11.7,-2.1%,O=C(CSc1nnc(NC(=O)Cc2ccc(F)cc2)s1)NCc1ccco1
5.5%,-0.2%,5.4,-5.8%,COC(=O)CC/C(O)=C1/C(=N)CC(C)(C)CC1=O
-0.6%,-2.5%,nt,nt,COc1cc(C(=O)Nc2ccc3c(c2)CCCN3C(=O)c2ccco2)c([N+](=O)[O-])cc1OC
1.2%,0.6%,-7.6,-0.7%,Cc1ccccc1CNC(=O)c1cc(COc2ccc(F)cc2F)on1
22.5%,0.2%,nt,-14.2%,O=C(CNS(=O)(=O)c1ccccc1)N1CCN(Cc2ccccc2)CC1
10.8%,-1.1%,-5.7,-2.7%,CCCCC(=O)Nc1c(O)c2ccccc2[nH]c1=O
-24.4%,?,nt,nt,CC(Oc1ccc(Br)cc1)C(=O)NCC(c1ccco1)N1CCCCC1 (stereo unspecified)
-3.9%,1.1%,8.0,-3.1%,CC(C)CC(C(=O)NC(=O)NCc1ccccc1)N1C(=O)c2ccccc2C1=O (stereo unspecified)

# Other structures follow.
Rango release inh,Rango-impB inh,GLA inh pH 4.5,miR-21 reporter,Structure
-6.3%,1.5%,nt,-1.0%,C[C@@H]1C(=O)O[C@H]2[C@H](O)[C@@]34[C@H]5C[C@@H](C(C)(C)C)[C@]36[C@@H](OC(=O)[C@@H]6O)O[C@@]4(C(=O)O5)[C@@]12O
-1.9%,-2.7%,nt,-3.8%,CNC(=O)CSc1nnc(-c2ccco2)n1-c1ccccc1
-5.8%,3.2%,nt,0.0%,O=C(NC1CCN(S(=O)(=O)c2ccc(F)cc2)CC1)c1cccc(F)c1
10.8%,0.2%,-5.6,2.3%,Cc1ccc(NC(=S)N/N=C2\CCCCC2C)cc1 (stereo unspecified)
-2.8%,-2.1%,6.0,0.5%,Cc1ccc(S(=O)(=O)n2ccc(=O)[nH]2)cc1
18.0%,-0.2%,nt,nt,O=C1N[C@@H](c2ccccc2)COC(=O)[C@@H](Cc2ccc(F)cc2)CC/C=C/C[C@@H]1CC(=O)N(CCO)Cc1ccccc1
1.9%,5.3%,1.4,-1.3%,COC(=O)CCN(C(=O)c1cccc([N+](=O)[O-])c1)c1ccccn1
0.4%,0.6%,-1.8,-14.6%,COc1ccc(C(=O)OCCN2CCCCC2)cc1
8.1%,-1.5%,-13.6,-9.2%,COc1ccc(-n2c(C)nc3cc(C(=O)NCc4ccco4)ccc32)cc1
-2.6%,0.0%,2.8,-2.3%,CCOCCCNCc1c(Cl)cccc1Cl
3.9%,1.3%,-1.2,-2.3%,CC(C)Cc1cc(C(=O)N2CCN(C(c3ccccc3)c3ccccc3)CC2)no1
22.2%,1.4%,nt,nt,CCOC(=O)C1(CCC(=O)OCc2ccccc2)CCCCC1=O (stereo unspecified)
9.0%,2.5%,nt,-9.3%,Cc1cccc(C)c1OCc1cc(C(=O)NC2CCC(O)CC2)no1 (stereo unspecified)
-7.8%,1.9%,-0.8,9.1%,CCOc1ccc(NC(=O)CSc2nnc(-c3ccco3)n2C)cc1
-7.7%,-2.3%,7.9,-27.1%,COc1ccc(N2CCN(c3ncnc4nc[nH]c34)CC2)cc1
34.8%,1.6%,nt,0.6%&28.1%,COc1cc(Cl)c(NS(=O)(=O)c2cc3[nH]c(=O)c(=O)[nH]c3cc2C)c(OC)c1
10.8%,-0.7%,1.5,-43.4%,O=C(Nc1cc2c(cc1Cl)OCCCO2)c1ccccc1
-2.5%,0.2%,-4.3,-0.2%,Cc1cc(-c2[nH]nc3c2C(c2ccc(Cl)cc2)C(C#N)=C(N)O3)c(C)s1 (stereo unspecified)
-2.6%,4.1%,-13.3,-0.5%,O=C(CCC(=O)OCC(=O)c1ccc(Br)cc1)NC1CCCCC1
0.0%,0.6%,nt,10.4%,O=C(CN1CCC(NC(=O)Nc2ccccc2)CC1)Nc1cccc([N+](=O)[O-])c1
2.1%,0.8%,nt,-12.3%,O=C(NNS(=O)(=O)c1ccccc1[N+](=O)[O-])c1cc2ccccc2cc1O
-7.8%,-3.7%,nt,nt,O=C(O)C1CCN(S(=O)(=O)c2ccc(Cl)s2)CC1
-22.5%,?,2.7,-4.9%,Cc1cc(C(=O)NNC(=S)NC(C)c2ccccc2)c2ccccc2n1 (stereo unspecified)
-18.6%,-3.3%,7.2,3.7%,CCc1cc2c(SCC(=O)C(C#N)=C3N(C)c4ccccc4N3C)ncnc2s1
-16.6%,-2.4%,1.1,-71.8%,Cc1c(C(=O)NNC(=S)Nc2cccc(Cl)c2)nnn1-c1ccccc1
9.8%,0.4%,nt,-2.5%,Cc1ccc(CNc2nnnn2C)cc1
-0.1%,1.8%,1.1,-0.7%,COc1ccc(CN2CN(c3ccc(Cl)cc3)C(=O)N(n3cnnc3)C2)cc1
-0.2%,-0.3%,-0.8,-4.4%,CCN(C1CCCCC1)S(=O)(=O)c1cn(C)c(=O)n(C)c1=O

# 2 of the compounds above, field by field.
Cc1cc(-c2[nH]nc3c2C(c2ccc(Cl)cc2)C(C#N)=C(N)O3)c(C)s1 (stereo unspecified)
- Rango release inh: -2.5%
- Rango-impB inh: 0.2%
- GLA inh pH 4.5: -4.3
- miR-21 reporter: -0.2%

O=C(CCC(=O)OCC(=O)c1ccc(Br)cc1)NC1CCCCC1
- Rango release inh: -2.6%
- Rango-impB inh: 4.1%
- GLA inh pH 4.5: -13.3
- miR-21 reporter: -0.5%
